Compound activity (PubChem)
Mtb MenB inh: Mtb MenB enzyme inhibition | actives 0.43% (n = 100,000) | inhibition, %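 (about 12 µg/mL by stock and volumes)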 | MenB enzyme assay, absorbance read-out; some hits fall short of the stated cut;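 active = mean of two replicates above 30%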;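 also: 0% = no compound and 100% = wells with inactive enzyme; the first replicate is given; strong numbers were not always called active; inactives centre near -10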
MbtI inh: blocks the Mycobacterium tuberculosis siderophore enzyme MbtI; P9WFX0; purified MbtI enzyme, fluorescence intensity read-out; inhibition, %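 (about 17 µg/mL by stock and volumes)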; actives 0.89% (n = 100,000); AID 493033;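 active = above 50% in both replicates, above 80% if mildly self-fluorescent; inactive = the rest, strongly fluorescent compounds included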;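 also: 0% = mean of negative and 100% = mean of positive controls; one replicate is shown; some compounds called inactive have numbers as strong as hits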
Target sequence (P9WFX0 whole entry, looked up): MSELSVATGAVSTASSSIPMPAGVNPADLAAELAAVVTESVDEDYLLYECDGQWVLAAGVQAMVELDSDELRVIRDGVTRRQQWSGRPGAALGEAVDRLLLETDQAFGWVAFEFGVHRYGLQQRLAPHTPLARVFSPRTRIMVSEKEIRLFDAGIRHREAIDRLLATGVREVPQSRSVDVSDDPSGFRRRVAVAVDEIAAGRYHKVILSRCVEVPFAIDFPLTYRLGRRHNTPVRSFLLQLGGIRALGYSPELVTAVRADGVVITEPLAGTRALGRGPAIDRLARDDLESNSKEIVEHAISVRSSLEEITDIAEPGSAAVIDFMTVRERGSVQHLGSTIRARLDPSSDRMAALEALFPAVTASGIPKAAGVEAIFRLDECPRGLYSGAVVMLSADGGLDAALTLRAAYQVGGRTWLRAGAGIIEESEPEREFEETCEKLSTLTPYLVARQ
PV pol inh: poliovirus RNA polymerase inhibition | actives 0.66% (n = 150,000) | AID 588519 | poliovirus polymerase elongation, fluorescence polarization; hits give low values | P03300 | % elongation, % (compound at 16.7 µg/mL); in the data active = % elongation below about 90%; also: some results filed as inactive read as strong as hits
Target sequence (P03300 1749-2209 limits assumed): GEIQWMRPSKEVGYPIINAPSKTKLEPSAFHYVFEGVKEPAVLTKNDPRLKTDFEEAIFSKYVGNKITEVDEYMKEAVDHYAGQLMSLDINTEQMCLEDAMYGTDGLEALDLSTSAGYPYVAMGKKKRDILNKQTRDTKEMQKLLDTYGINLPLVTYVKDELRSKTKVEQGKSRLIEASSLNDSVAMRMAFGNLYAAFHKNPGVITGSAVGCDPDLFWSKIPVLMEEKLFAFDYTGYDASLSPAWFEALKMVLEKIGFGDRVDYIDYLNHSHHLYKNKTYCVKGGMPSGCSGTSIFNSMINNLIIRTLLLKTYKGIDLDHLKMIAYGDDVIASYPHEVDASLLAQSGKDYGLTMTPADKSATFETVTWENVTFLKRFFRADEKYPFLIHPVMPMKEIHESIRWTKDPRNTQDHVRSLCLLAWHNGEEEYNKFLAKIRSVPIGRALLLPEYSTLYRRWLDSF
PV pol inh intensity: further read-out of PV pol inh, marked with its call; % elongation; measured here: total intensity read-out; formula for this scale not given here;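 total fluorescence in place of polarization; lower means less elongation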
* = called active by the depositor; i = inactive; · = not tested or not shown; & = joins results of further samples.

SMILES	Mtb MenB inh	MbtI inh	PV pol inh	PV pol inh intensity
Cc1ccc2cc(C3CC(c4ccccc4)=NN3C(=O)CCC(=O)O)c(=O)[nH]c2c1 (configuration not stated)	13	-4	93	98
CCc1ccc(S(=O)(=O)N2CCSC2c2ccccc2)cc1 (configuration not stated)	-38	6	105	107
Cc1ccc(CN2CNc3nnnn3C2)cc1	8	5	·	·
COC(=O)C1=CN(CCc2ccc(F)cc2)C=C(C(=O)OC)C1c1ccccc1C(F)(F)F	-48	i	102	104
C=CCN1CC2=C(C1=O)C(c1ccccc1)NC(=O)N2 (configuration not stated)	-4	-12	101	109
CC(C)Cn1c(SCc2nnc(-c3cccs3)o2)nc(O)cc1=O	-165	17	83*	86*
O=C(O)c1ccc(OCOc2ccc(C(=O)O)c(C(=O)O)c2)cc1C(=O)O	-8	-7	101	99
c1ccc(Cn2cnnc2)cc1	·	-5	102	105
CC(C)CC(=O)NC(C(=O)N[C@H](C(=O)NC(CC(C)C)[C@@H](O)CC(=O)N[C@@H](C)C(=O)NC(CC(C)C)[C@@H](O)CC(=O)O)C(C)C)C(C)C (some centres not stated)	5	1	101	102
CSCCC(N=C1NS(=O)(=O)c2ccccc21)C(=O)N1CCN(C(=O)c2ccco2)CC1 (configuration not stated)	-26	-9	108	110
CC(C)(C(=O)Nc1cccc(Cl)c1)S(=O)(=O)c1ccc(C(F)(F)F)cn1	-10	-4	102	107
COc1ccccc1N1C(=O)C2CSC(c3ccc(C)cc3)N2C1=O (configuration not stated)	-8	-9	102	105
O=c1[nH]nc(SCc2cn3ccccc3n2)c(=O)[nH]1	-11	54	32*	40*
CC(=O)NC1=NC(=O)/C(=C/c2cccc(Oc3ccccc3)c2)S1	-34	15	96	97
COCCN=c1scc(-c2cccs2)n1/N=C/c1c(C)nn(-c2ccccc2)c1Cl	-38	4	106	110
CSc1ccccc1NC(=O)Cn1c(SC)nc2ccccc21	·	-2	97	100
CCCn1c2ccccc2c2cc(OC)ccc21	-4	176	103	104
CCN(CC)c1cccc(Oc2ncnc3sccc23)c1	-6	-169	136	209
O=C(O)c1c2c(nc3ccccc13)CCC2	-9	-9	100	103
O=C1N=C(c2ccccc2)O/C1=C\C=C\c1ccccc1	·	-9	102	101
Cc1ccn2cc(-c3ccc(O)c(O)c3)nc2c1	2	·	106	102
CCc1c(C)oc2cc3ccccc3c-2c1C	-5	-13	102	114
COc1ccc(CCNC(=S)NCc2ccco2)cc1OC	3	-6	102	102
O=C(CNS(=O)(=O)c1ccccc1)Nc1ccc2c(c1)OCO2	56*	4	103	102
FC(F)(F)c1ccc(N2CCN(C(c3ccccc3)c3ccccc3)CC2)nc1	-40	21	102	101

Going on with the list.
SMILES	Mtb MenB inh	MbtI inh	PV pol inh	PV pol inh intensity
N#CCn1c(=O)oc2ccccc21	-11	-11	99	102
O=C(N/N=C/c1sc(Nc2ccccc2)nc1Cl)C1CC1	-2	i	63	231
CCOC(=O)c1sc(=S)n(C)c1C	25	16	102	102
CCCNS(=O)(=O)c1cccc2cccnc12	7	23	99	98
Cc1cc(C)n(C(C)C(=O)Nc2ccccc2C)c(=O)n1 (configuration not stated)	-5	-4	101	100
Cc1cccc(OCCOC(=O)c2ccc(O)cc2)c1	·	-7	103	104
O=C1CCCc2cc(S(=O)(=O)NCC3CCN(Cc4cccc(F)c4)CC3)ccc2N1	-8	-14	97	102
O=C(Nc1ccc(-c2cn3c(n2)SCC3)cc1)c1ccc(Br)o1	-25	14	104	106
Cn1cc(SCC(=O)NC2CCCC2)c2ccccc21	-24	10	100	104
CCCn1c(SCC(=O)N2CCc3ccccc3C2)nc(O)cc1=O	-184	96	100	106
COc1ccc(C(=O)OCC(=O)c2ccc(C)cc2)cc1OC	15	7	103	104
CCc1ccc(C(=O)NCc2nnc(SC)n2CC)cc1	-36	-3	100	105
O=C(/C=C/c1ccco1)N1CCC(Cc2ccccc2)CC1	-12	11	103	105
C=CCN1C(=O)/C(=C\c2ccccc2)C(C(=O)OC)=C1C	-93	12	101	105
Nc1cccc2c1C(=O)N(C(=O)C1CCCN1C(=O)c1cccs1)C2=O (configuration not stated)	-5	69	100	104
O=S(=O)(NCC(Sc1nnnn1-c1ccccc1)c1ccccc1)c1ccc(Cl)s1 (configuration not stated)	-42	1	104	95
O=C(NCc1ccncc1)c1cccc(Nc2nc3ccccc3n3nnnc23)c1	-17	-7	103	105
O=C(O)c1sc2sccc2c1Cl	4	22	101	102
NC(=S)NNc1ccc(F)cc1	-17	27	101	106
Cc1ccc2c(C)nc(Nc3nccc(C)n3)nc2c1	-6	-1	104	104
CSc1nc2ccccc2c(=O)n1N	-18	-2	·	·
O=C(Cc1cccc(C(F)(F)F)c1)Nc1nccs1	-15	-13	111	110
Fc1ccccc1CNC1CC1	-75	-5	104	103
CNNC(=S)Nc1ccc(Cl)cc1	-1	-11	101	104
OC1CCCN(Cc2ccccc2)C1 (configuration not stated)	-18	-6	101	96

Quoted at random: 4 compounds from above.
SMILES	Mtb MenB inh	MbtI inh	PV pol inh	PV pol inh intensity
O=C1CCCc2cc(S(=O)(=O)NCC3CCN(Cc4cccc(F)c4)CC3)ccc2N1	-8	-14	97	102
CNNC(=S)Nc1ccc(Cl)cc1	-1	-11	101	104
CCOC(=O)c1sc(=S)n(C)c1C	25	16	102	102
N#CCn1c(=O)oc2ccccc21	-11	-11	99	102

Single records, from the list above. Order of screens: Mtb MenB inh, MbtI inh, PV pol inh, PV pol inh intensity
Record of `Cn1cc(SCC(=O)NC2CCCC2)c2ccccc21` : -24, 10, 100, 104
Record of `O=C(/C=C/c1ccco1)N1CCC(Cc2ccccc2)CC1` : -12, 11, 103, 105
Record of `Cc1ccc2c(C)nc(Nc3nccc(C)n3)nc2c1` : -6, -1, 104, 104
Record of `O=C(Cc1cccc(C(F)(F)F)c1)Nc1nccs1` : -15, -13, 111, 110
Record of `CCCn1c(SCC(=O)N2CCc3ccccc3C2)nc(O)cc1=O` : -184, 96, 100, 106

Additional compounds follow:
SMILES	Mtb MenB inh	MbtI inh	PV pol inh	PV pol inh intensity
C=CCSc1nc2sc3c(c2c(=O)[nH]1)CC(C)(C)OC3	-47	19	103	99
S=C(SCSc1nc2ccccc2s1)N1CCCCC1	-46	4	100	104
Cc1cc(C(=O)COc2ncnc3sccc23)c(C)n1-c1ccccc1	11	9	111	116
COc1cnc(N)nc1	·	95	107	108
O=C(CCc1ccccc1)Nc1cccnc1	-4	·	104	109
O=C1CNC(=S)N1CC1CCCO1 (configuration not stated)	-42	10	103	98
CC1=C(C)CC(C(=O)c2ccc(C)cc2)C(C(=O)O)C1 (configuration not stated)	8	-4	99	103
COc1cccc(-n2cc(C(=O)N(C)c3ccccc3)c3ccccc3c2=O)c1	0	-4	103	97
Nc1cc(=O)nc(SCC(=O)NCc2ccccc2)n1-c1ccccc1	-4	-10	104	99
CCCCN(Cc1ccccc1)S(=O)(=O)c1ccc2c(c1)oc(=O)n2CC(=O)OCC	-33	6	102	106
CCCN1C(=O)/C(=N\OCc2nnc(-c3cccs3)o2)c2ccccc21	-23	-26	103	105
CN1C(=O)C(Cc2ccccc2)NC1=S (configuration not stated)	-43	2	103	102
CCN=C1SC(CC(N)=O)C(=O)N1CC (configuration not stated)	-4	-5	103	102
O=C(NCc1ccc(Cl)cc1)c1cc(F)c(F)c(F)c1F	·	-7	104	106
O=C(COC(=O)c1ccccc1C(=O)N1CCN(c2ccc(F)cc2)CC1)NC1CC1	4	-2	98	139
COc1cccc(-c2nc(-c3cccs3)c(-c3cccs3)[nH]2)c1	-2	115	103	103
O=C(CCCc1c[nH]c2ccccc12)N1CCN(S(=O)(=O)Cc2ccccc2)CC1	-15	5	95	100
CCOc1ccc(-c2cc(C(=O)NCCCN3CCCCC3)c3ccccc3n2)cc1	-6	-32	102	106
NCCc1ccc(S(N)(=O)=O)cc1	-1	·	104	116
Cc1[nH]c2ccccc2c1C(Nc1ccccn1)c1ccc(C(F)(F)F)cc1 (configuration not stated)	1	36	104	99
Cc1ccc(N2C(=O)CC(N3CCN(c4nc(C)cc(C)n4)CC3)C2=O)cc1 (configuration not stated)	-22	-10	106	104
O=C(N=Nc1[nH]c2ccccc2c1O)c1ccc(Cl)cc1	3	-8	99	99
CCSC(=O)NC1CCCCC1	12	-10	108	112
O=C(COC(=O)Cc1cccc(C(F)(F)F)c1)NCC1CCCO1 (configuration not stated)	·	-8	97	95
Clc1ccc2nc(N3CCCCC3)[nH]c2c1	6	17	105	107

Carrying on.
SMILES	Mtb MenB inh	MbtI inh	PV pol inh	PV pol inh intensity
O=C(CSc1nc2ccccc2c(=O)n1Cc1ccco1)OC1CCCCC1	20	2	101	102
CC(=O)Nc1ccc(C(=O)OCC(=O)Nc2ccc(F)c(F)c2)cc1	·	-3	99	97
COc1ccc(CCN(C)C(=O)C2CCCN(Cc3ccc(OC)c(OC)c3)C2)cc1OC (configuration not stated)	-7	-5	103	105
COc1cc(SC#N)ccc1N=Cc1c(O)n(-c2cccc(C)c2)c(=O)[nH]c1=O	7	16	99	105
O=c1[nH]nc(SCc2cc(Cl)cc3c2OCOC3)n1CC1CCCO1 (configuration not stated)	-14	-7	103	104
O=C(C1CNc2ccccc2O1)N1CCOCC1 (configuration not stated)	-36	-5	101	99
CCCNC(=O)C1CCN(Cc2nc(-c3ccc(OC)c(OC)c3)oc2C)CC1	1	27	100	97
CCN1CCN(C(=O)/C(C#N)=C/c2cc(C)n(C3CCCC3)c2C)CC1	-80	-10	106	114
O=C1CC(C(=O)Nc2cc(Cl)cc(Cl)c2)C2=C(CCCC2=O)N1 (configuration not stated)	-13	3	100	103
CC(=NCc1nnc(C)s1)c1cc2c(=O)n(C)c3ccccc3c2oc1=O	-14	·	110	109
COC(=O)c1cccc(C(=O)OC)c1	5	·	106	98
CCOc1ccc(NC(=O)Cn2c(Nc3ccc(OCC)cc3)nc3c2c(=O)[nH]c(=O)n3C)cc1	-3	-49	104	102
Nc1nonc1N1CCCCC1	-19	0	101	100
COc1ccc(C)cc1NC(=O)N1CCN(S(C)(=O)=O)CC1	-22	-7	102	103
O=C(NCc1ccccc1)NCc1c(-n2cccc2)sc2c1CCCC2	1	-8	103	106
O=C1OC(c2ccc(O)cc2)Nc2ccc(C(F)(F)F)cc21 (configuration not stated)	·	78	103	96
CC1CCN(C(=O)c2ccc3c(c2)nnn3C)CC1	21	1	101	102
N#Cc1cc2c(=O)n3ccccc3nc2n(Cc2ccco2)c1=N	-21	25	103	122
NS(=O)(=O)c1ccc(CNC(=O)c2cc(=O)c3ccccc3o2)cc1	-21	4	100	101
Cc1ccc(S/C(=C/N(C)C)C(=O)c2ccc(C)cc2)cc1	-12	2	106	114
CO[C@@]1(NC(=O)Cc2cccs2)C(=O)N2C(C(=O)O)=C(COC(N)=O)CS[C@@H]21	-8&-5	-4&-23	101&100	102&102
NC(=O)CSc1n[nH]c(-c2ccco2)n1	-35	15	101	102
Cc1sc2nc(CN(CCc3ccccc3)C(=O)c3ccco3)[nH]c(=O)c2c1C	16	-2	101	102
Cc1ccc(Cl)cc1N1CCN(CCNC(=O)CCCn2sc3ccccc3c2=O)CC1	-3	-2	103	101
O=C(c1cc(-c2ccccc2)nn1-c1ccccc1)N1CCC1	-12	-31	103	110

Continued.
SMILES	Mtb MenB inh	MbtI inh	PV pol inh	PV pol inh intensity
Cc1ccc2cc3cc(C(=O)NCCN4CCN(c5cccc(Cl)c5)CC4)sc3nc2c1	-19	-8	104	109
Cc1cccc(NC(=O)Nc2ccc(C)c(C)c2)c1	-24	·	100	104
O=C(O)c1cccc(CSc2nc3ccccc3o2)c1	5	5	101	104
O=c1cc(OCc2ccccc2)c2ccccc2[nH]1	-33	24	102	107
O=S(=O)(CCN1CCSCC1)c1ccccc1	-9	-7	108	108
CCCNC(=O)c1ccc(S(=O)(=O)N(C)c2ccccc2)cc1	·	-5	101	103
COc1cc(OC)cc(C(=O)N2CCc3ccccc32)c1	-11	·	101	103
COc1ccc(NC(=O)C2Cc3ccccc3CN2C(=O)c2ccccc2)cc1 (configuration not stated)	·	-8	101	107
